GLA inh pH 4.5: blocks human alpha-galactosidase A at pH 4.5 | P06280 | purified enzyme, 4-MU-alpha-Gal fluorescence, pH 4.5 | activity change, negative = inhibition, % at 105 µM | 230,000 tested, under 10 active | AID 1467; inconclusive = small, poorly fitted or top-dose-only inhibition, or a rising curve; inactive = flat fitted curve, though single readings scatter; no compound was filed as active;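 note: 0% = full activity with enzyme and -100% = basal without enzyme; dose as in the result columns while the protocol names 77 µM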
Target sequence (P06280 whole entry, looked up): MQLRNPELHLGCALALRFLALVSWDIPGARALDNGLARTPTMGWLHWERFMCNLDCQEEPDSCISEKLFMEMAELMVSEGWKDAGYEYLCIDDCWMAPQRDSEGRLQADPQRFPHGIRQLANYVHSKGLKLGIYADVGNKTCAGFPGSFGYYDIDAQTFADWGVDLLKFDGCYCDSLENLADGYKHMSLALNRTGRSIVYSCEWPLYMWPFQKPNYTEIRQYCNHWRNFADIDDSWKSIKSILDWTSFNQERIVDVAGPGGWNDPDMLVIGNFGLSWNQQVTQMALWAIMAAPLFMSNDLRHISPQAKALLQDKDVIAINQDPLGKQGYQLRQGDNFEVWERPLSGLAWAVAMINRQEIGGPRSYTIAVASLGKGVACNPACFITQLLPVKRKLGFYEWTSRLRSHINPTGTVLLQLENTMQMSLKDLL
miR-21 FLuc: miR-21 reporter, rising signal. 340,000 tested, under 10 active. AID 2288. HeLa miR-21 FLuc reporter, luciferase, 48 h. Potency, µM (doses to about 38.3 µM), for the others: at the highest dose reporter change, positive = more light; active = well fitted rising curve with a large enough effect; inconclusive = small, poorly fitted or top-dose-only effect; inactive = no such curve, though single readings can be large or run the other way;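 note: % of control where 0% means no effect; miR-21 action dims this reporter so a rising signal means less miR-21 action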
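Compounds were titrated across several concentrations (up to approximately 40 uM) and incubated 48 hours with HeLa miR-21-FLuc reporter cells (miR-21 target sequence downstream of FLuc, endogenous miR-21). Readout was firefly luciferase luminescence after lytic detection reagent.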
Rango release inh: prevents RanGTP from dissociating the Rango-importin beta complex. Potency, µM (series often up to 46.1 µM), for inactives: at the highest dose activity change, negative = inhibition. 340,000 tested, 0.071% active. Biochemical FRET Rango-importin beta, RanGTP-induced dissociation; active means falling FRET ratio curve, often poorly fitted, with flat reads before Ran was added; inconclusive means other falling curves, or compound fluorescence or quenching; inactive means flat or rising ratio curve;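 note: potency is the fitted concentration of half-maximal effect; % of control where 0% means no effect; nearly all actives have a fitted effect of over 45% in size; -100% = wells without RanGTP and RCC1; the record marks most hits as doubtful in a second field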
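Rango/importin beta premix (0.1/0.25 uM final), PBS + 1 mM DTT + 0.02% Tween-20 + 0.1% BSA; cpd 5 min RT; FRET pre-read; + RanGTP-RCC1 (0.6 uM Ran, 2 mM GTP, 0.2 uM RCC1); 45 min RT; FRET post-read, ex 430, em 486/530 nm.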
Rango-impB inh: inhibitors of Rango-importin beta complex formation. Potency, µM (doses to about 92.2 µM), inactives show top-dose inhibition of complex formation. Q14974. Rango CFP/YFP FRET sensor + importin beta, 45 min. 340,000 tested, 0.031% active; active = rising FRET ratio curve, often small or poorly fitted; inconclusive = mostly compound fluorescence or quenching in the first reads; inactive = flat curves in all reads;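 note: potency is the fitted concentration of half-maximal effect; 0% = DMSO wells and 100% = buffer wells lacking importin beta; nearly all actives have a fitted effect of over 15% in size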
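FRET biosensor Rango (snurportin 1 IBB between N-terminal EYFP and C-terminal Cerulean), 50 nM in PBS/1 mM DTT/0.02% Tween-20/0.1% BSA, preincubated 5 min RT with compound; 0.125 microM importin beta added, 45 min RT, CFP/YFP FRET ratio read.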
* = called active by the depositor; ? = inconclusive; nt = not tested or not shown; & = joins results of further samples. Some of the compounds tested (hit frequency here may not be typical).

GLA inh pH 4.5	miR-21 FLuc	Rango release inh	Rango-impB inh	SMILES
7	-15%	-7%	-3.6%	Cc1oc2ncnc(N)c2c1C
nt	-3%	6%	0.3%	Cc1cc(=O)oc2c3c(cc(OCC(=O)N[C@@H](CC(C)C)C(=O)O)c12)OC(C)(C)CC3
nt	-3%&-10%	-7%	0.0%	COc1cc(NC(=O)c2nn(C)c3c2CS(=O)(=O)c2ccccc2-3)cc(OC)c1
nt	-1%	-8%	6.9%	COc1ccc(CNC(=O)CCCNC(=O)c2ccc(Cl)cc2)cc1OC
nt	nt	8%	-3.9%	Cc1c(C(=O)N2CCN(S(=O)(=O)c3ccccc3)CC2)oc2ccccc12
2	-4%	-5%	-3.6%	COc1ccc(C2(CCN)CC(C)N(C)CC2C)cc1 (stereo not drawn)
nt	nt	-7%	-1.2%	COc1ccc(S(=O)(=O)N2CCC(C(=O)NN3CCCCC3)CC2)cc1OC
0	1%	6%	0.9%	COCCNC(=O)C(c1ccccc1)N(C(=O)Cn1nnc2ccccc21)c1cccnc1 (stereo not drawn)
nt	2%	1%	-0.2%	O=C(c1ccco1)N1CCN(Cc2nnc(-c3cccc(Br)c3)o2)CC1
nt	-54%	-18%	-2.0%	CC(=O)c1cnc2nc(SCc3ccccc3C)nn2c1C
nt	0%	-3%	5.0%	COc1ccc(C)cc1S(=O)(=O)NCCN1CCOCC1
7	-52%	4%	1.4%	N/C(=N\OC(=O)c1ccco1)c1ccccn1
1	-1%	nt	nt	CCc1ccccc1NC(=O)CSc1nc(-c2ccccc2)nn1C(=O)c1cccc([N+](=O)[O-])c1
7	-14%	20%	3.8%	Cc1cccc(Oc2ccc(NC(=O)C3CC=CCC3C(=O)O)cc2)c1 (stereo not drawn)
-3	-6%	9%	-2.9%	CCn1cc(Cl)c(C(=O)NNC(=O)CCn2cc([N+](=O)[O-])cn2)n1
1	-1%	-16%	-4.0%	Cc1ccc(C)c(NC(=O)CN(C)S(=O)(=O)c2ccccc2)c1
-4	-3%	0%	-0.5%	O=C(NCc1c(Cl)cccc1Oc1ccccc1)c1ccccc1
-7	0%	15%	2.5%	COc1cccc(-c2nn(-c3ccccc3)cc2CN(C)Cc2c(C)nc3ccccn23)c1
-5	3%	-3%	-0.8%	Cc1ccc(NC(=O)CCSc2nnc(-c3ccco3)o2)cc1
nt	nt	23%	-8.1%	CCC(C)(C)C1CCC2(CC1)NC(=O)N(CC(=O)N(C)Cc1ccc(OC(F)F)cc1)C2=O (stereo not drawn)

(continued)
GLA inh pH 4.5	miR-21 FLuc	Rango release inh	Rango-impB inh	SMILES
11	0%	-15%	1.3%	CCCNC(=O)COc1ccc(S(=O)(=O)Nc2ccc(C)cc2)cc1
nt	1%	-3%	2.5%	Cc1ccc(S(=O)(=O)Nc2ccc(S(=O)(=O)Nc3nccs3)cc2)c([N+](=O)[O-])c1
-3	2%	-21%	2.4%	O=C(NCC1CCCO1)C(=O)N/N=C/c1cc(Cl)ccc1O (stereo not drawn)
nt	nt	20%	-0.1%	O=C(COC(=O)c1ncc(Cl)c(Cl)c1Cl)NCCc1ccccc1
nt	nt	-5%	-2.7%	CCOc1ccc(NC(=O)CSc2nc(=O)n(Cc3cccnc3)c3c2CCC3)cc1
nt	nt	-3%	0.6%	CC(=O)c1c(C)[nH]c(C(=O)CN2CCN(S(=O)(=O)c3ccccc3)CC2)c1C
-4	-57%	-7%	-0.6%	CC(=O)c1sc(NC(=O)COc2ccccc2)nc1C
8	-1%	-11%	-0.4%	c1csc(CN2CCOCC2)c1
-11	-4%	-6%	0.5%	Cc1cc(C)nc(/N=C(\NC(=O)C(C)(C)C)Nc2ccc(F)cc2)n1
-7	2%	?	?	COc1cc(NC(=O)C2=C(N3CCOCC3)/C(=C/c3ccc(Cl)cc3)CC2)cc(OC)c1OC
nt	nt	-5%	0.7%	O=[N+]([O-])c1ccccc1S(=O)(=O)Nc1cccc(-c2ccc3nncn3n2)c1
-3	-1%	-7%	-0.7%	CCOC(=O)N1CCC(NC(=O)c2cc(C(=O)NC3CCCC3)ccc2CO)CC1
0	-41%	-11%	-4.6%	O=C(CNCc1ccc(Cl)cc1)Nc1ccc2c(c1)OCCO2
nt	2%	1%	1.7%	CCOc1cccc2cc(C(=O)NCc3ccc(Cl)cc3)c(=N)oc12
nt	-56%	-6%	2.7%	O=C(NC(=S)NC1CCCCC1)c1ccccc1
-4	-2%	17%	0.2%	Nc1ccnn1Cc1cccnc1
-2	-7%	8%	-0.4%	CCOc1ccc(C(=O)CN2CCN(S(=O)(=O)c3ccc(Cl)cc3)CC2)cc1
-7	0%	-9%	1.9%	O=C(O)CCCCCn1c(O)c(C=C2N=c3ccccc3=N2)sc1=S
nt	0%	16%	0.6%	COc1ccc(Br)cc1CNC(=O)C1CCCN(S(=O)(=O)N2CC(C)CC(C)C2)C1 (stereo not drawn)
nt	nt	-7%	3.7%	C#CCOCCOCCOCCNc1nc(N2CCN(C(=O)Cn3cc(CCO)nn3)CC2)nc(N2CCN(C(=O)[C@H]([C@@H](C)CC)n3cc(CCCN=C(N)N)nn3)CC2)n1

Part of the list above, in markdown.
| SMILES | GLA inh pH 4.5 | miR-21 FLuc | Rango release inh | Rango-impB inh |
| --- | --- | --- | --- | --- |
| O=C(NCC1CCCO1)C(=O)N/N=C/c1cc(Cl)ccc1O (stereo not drawn) | -3 | 2% | -21% | 2.4% |
| CCOc1ccc(NC(=O)CSc2nc(=O)n(Cc3cccnc3)c3c2CCC3)cc1 | nt | nt | -5% | -2.7% |

Other compounds
GLA inh pH 4.5	miR-21 FLuc	Rango release inh	Rango-impB inh	SMILES
-8	0%	1%	5.0%	O=C(/C=C/c1cccs1)N1CCC2(CC1)Oc1ccc(Cl)cc1C(=O)C21CC(c2ccccc2)=NO1 (stereo not drawn)
-17	-1%	4%	0.4%	CC(=O)N1CCN(c2ccc([N+](=O)[O-])c(NCC3CCCO3)c2)CC1 (stereo not drawn)
5	-39%	2%	-0.2%	CCC(=O)c1c[nH]c(C(=O)NCCc2ccccn2)c1
-24	-5%	-7%	-1.5%	Cc1ccccc1N/N=C1\CCCNC1=O
-4	-1%	1%	0.3%	COc1cc(-c2nnc(COc3ccc4cc(Br)ccc4c3)o2)cc(OC)c1OC
nt	-57%	-1%	0.6%	CCCc1cc(=O)n2[nH]c(-c3ccc(Cl)cc3)cc2n1
nt	-2%	-10%	-2.6%	Cn1ncc2c(N3CCCCC3)nc(NCCCO)nc21
nt	2%	-6%	-1.7%	Cc1cc(C)cc(N(CC(=O)NC2CCCC2)C(=O)CCC(=O)Nc2nccs2)c1
0	-69%	17%	0.1%	Nc1nnc(-c2ccc(Cl)cc2Cl)s1
3	-7%	15%	-2.2%	CCN(CC)C(=O)CNC(=O)Cc1ccc(Cl)cc1
-9	0%	0%	1.2%	CCc1cccc(C)c1NC(=O)C1CN(S(=O)(=O)c2ccccc2)CCN1S(=O)(=O)c1ccccc1 (stereo not drawn)
-15	-8%	-25%	-0.2%	O=C(CCNC(=O)c1ccccc1Cl)Nc1cccc(C(F)(F)F)c1
3	-5%	nt	nt	N#CC(C(=O)NC1CCCCC1)c1nc2ccccc2nc1N1CCOCC1 (stereo not drawn)
nt	nt	12%	3.3%	O=C(CCC(=O)c1cccs1)OCc1ccc([N+](=O)[O-])cc1
-9	1%	5%	0.8%	Cc1c(NC(=O)c2ccc(S(=O)(=O)N(C)c3ccccc3)cc2)c(=O)n(-c2ccccc2)n1C
2	-5%	-5%	3.5%	CC(=O)N1CCN(Cc2nc3cc(NC(=O)COc4ccccc4)ccc3n2C)CC1
nt	-1%	-24%	1.2%	Cc1ccc2c(c1)c1c3n2CCN(CC(N)=O)C3CCC1 (stereo not drawn)
5	-3%	-6%	2.9%	COc1ccc(C(C)(C)C)cc1NC(=S)NCCN1CCOCC1
nt	nt	-2%	-1.6%	O=C(C1CC(=O)N(c2ccc3c(c2)OCCO3)C1)N1CCCC(C(F)(F)F)C1 (stereo not drawn)
nt	-17%	22%	-3.1%	COc1cc(-c2cc(-c3ccccc3)nc(SCC(=O)O)c2C#N)cc(OC)c1OC

Retrieved by compound from the list above:
GLA inh pH 4.5	miR-21 FLuc	Rango release inh	Rango-impB inh	SMILES
nt	-1%	-24%	1.2%	Cc1ccc2c(c1)c1c3n2CCN(CC(N)=O)C3CCC1 (stereo not drawn)
nt	-57%	-1%	0.6%	CCCc1cc(=O)n2[nH]c(-c3ccc(Cl)cc3)cc2n1
-15	-8%	-25%	-0.2%	O=C(CCNC(=O)c1ccccc1Cl)Nc1cccc(C(F)(F)F)c1
nt	nt	12%	3.3%	O=C(CCC(=O)c1cccs1)OCc1ccc([N+](=O)[O-])cc1
-4	-1%	1%	0.3%	COc1cc(-c2nnc(COc3ccc4cc(Br)ccc4c3)o2)cc(OC)c1OC
nt	-17%	22%	-3.1%	COc1cc(-c2cc(-c3ccccc3)nc(SCC(=O)O)c2C#N)cc(OC)c1OC
-9	0%	0%	1.2%	CCc1cccc(C)c1NC(=O)C1CN(S(=O)(=O)c2ccccc2)CCN1S(=O)(=O)c1ccccc1 (stereo not drawn)

An excerpt from above in order of the Rango release inh value, descending.
GLA inh pH 4.5	miR-21 FLuc	Rango release inh	Rango-impB inh	SMILES
-17	-1%	4%	0.4%	CC(=O)N1CCN(c2ccc([N+](=O)[O-])c(NCC3CCCO3)c2)CC1 (stereo not drawn)
-4	-1%	1%	0.3%	COc1cc(-c2nnc(COc3ccc4cc(Br)ccc4c3)o2)cc(OC)c1OC
nt	nt	-2%	-1.6%	O=C(C1CC(=O)N(c2ccc3c(c2)OCCO3)C1)N1CCCC(C(F)(F)F)C1 (stereo not drawn)
2	-5%	-5%	3.5%	CC(=O)N1CCN(Cc2nc3cc(NC(=O)COc4ccccc4)ccc3n2C)CC1
nt	-1%	-24%	1.2%	Cc1ccc2c(c1)c1c3n2CCN(CC(N)=O)C3CCC1 (stereo not drawn)

Carrying on.
GLA inh pH 4.5	miR-21 FLuc	Rango release inh	Rango-impB inh	SMILES
-5	-8%	15%	-1.3%	COc1ccc(/C=N/n2cnc3c([nH]c4ccc(C)cc43)c2=O)cc1CN1CCCC1
2	-10%	23%	-0.1%	Cc1cc(C(=O)NCCCN2CCN(C3CCCCC3)CC2)n(-c2ccccc2)n1
-4	1%	?	?	CN1C(=O)c2cccc3c(S(=O)(=O)NCc4ccco4)ccc1c23
5	0%	0%	-3.4%	CC(C)C(C)NC(=O)COc1ccc(Sc2ccc(OCC(=O)NC(C)C(C)C)cc2)cc1 (stereo not drawn)
nt	-8%	-3%	-5.0%	Cc1ccccc1CC(=O)Nc1ccc2c(C)cc(=O)oc2c1
-3	-14%	-4%	-5.9%	O=C(Cc1ccc(Cl)cc1)Nc1ncc([N+](=O)[O-])s1
nt	nt	-25%	1.7%	CC(C)(C)c1cc(CCC(=O)Nc2ccncc2)cc(C(C)(C)C)c1O
0	-58%	-14%	-3.2%	COc1ccccc1OCC(=O)Nc1ccc(Cl)cc1
2	nt	-8%	-1.9%	Cc1cc(O)cc(C)c1Cl
2	-8%	1%	5.7%	Cc1onc(-c2c(Cl)cccc2Cl)c1C(=O)NCc1ccco1
nt	0%	1%	2.5%	Cc1ccc(Cl)cc1NC(=O)[C@@H]1CCC(=O)N1C1OC(=O)c2ccccc21 (stereo partly drawn)
4	-4%	-11%	4.1%	CCCc1nnc(NC(=O)CCC(=O)NC2CCCc3ccccc32)s1 (stereo not drawn)
